# Ecoli rRNA inh: reduced GFP signal of wild-type E. coli, primary screen, bacterial rRNA inhibitor project, GFP/RFP fluorescence, OD600, single point; 1.6% of 350,000 active; GFP signal change (wild-type ribosome), % (test concentration not listed); E. coli WT GFP vs humanized-ribosome RFP mutants, 24 h; stronger effect = lower value; DMSO median 0, no signal -100;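 active = significant combined selectivity score with lowered wild-type GFP, culture density cut under 30%, mutant RFP and density less affected; inactive = any of these conditions unmet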; note: one replicate is shown; some compounds called inactive have numbers as strong as hits
# A1 inh: caspase 3/7 activation in MEF A1-2A-BIM cells, primary screen, A1 inhibitor project, cell-based, luminescence, HTS; Caspase-Glo 3/7 luminescence, 3 h; percent of clofoctol response, vehicle zero; caspase activation, % (no concentration beside the values); 0.066% of 330,000 active;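 active = over half of replicate activation scores above 10%, or exactly half above 10 with the replicate mean above 10; inconclusive = replicate mean below 10 yet half the replicates above 10; inactive = over half of replicates below 10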;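 note: wells of about 30 µL received 50 nL stock; many hits fall short of the cut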
# AF4-AF9 inh: inhibitors of AF4 peptide binding to AF9, primary screen, biochemical, AlphaScreen, biotin-AF4 peptide, FLAG-AF9, single point. inhibition, % at 10 µM. Protein AF-9 (Homo sapiens), P42568. 0.47% of 350,000 active;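 active = every replicate reaching a set inhibition limit, whatever the replicate mean, cut at about 25% in these data; inconclusive = mean inhibition reaches that limit but some replicates miss it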;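 note: 0% = plate neutral control median and 100% = total signal loss; the record names both 10 and 1 µM as test concentration; the first replicate is given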
# Target sequence (P42568 whole entry, looked up): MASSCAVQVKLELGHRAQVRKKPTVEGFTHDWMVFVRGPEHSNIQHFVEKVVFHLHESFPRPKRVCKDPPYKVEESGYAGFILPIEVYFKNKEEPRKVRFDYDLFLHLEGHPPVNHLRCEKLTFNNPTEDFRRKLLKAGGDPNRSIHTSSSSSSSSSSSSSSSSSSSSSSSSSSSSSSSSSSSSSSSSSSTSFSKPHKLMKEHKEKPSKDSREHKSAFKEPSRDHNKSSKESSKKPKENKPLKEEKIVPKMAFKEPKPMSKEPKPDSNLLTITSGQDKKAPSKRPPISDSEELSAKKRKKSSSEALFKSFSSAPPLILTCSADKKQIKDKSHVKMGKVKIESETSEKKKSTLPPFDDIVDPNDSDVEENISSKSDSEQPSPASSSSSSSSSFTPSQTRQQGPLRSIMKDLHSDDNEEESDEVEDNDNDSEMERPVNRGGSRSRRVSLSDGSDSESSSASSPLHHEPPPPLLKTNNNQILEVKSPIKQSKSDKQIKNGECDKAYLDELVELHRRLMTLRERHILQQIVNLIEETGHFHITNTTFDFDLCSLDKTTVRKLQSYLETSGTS
# T cruzi repl: inhibitors of intracellular T. cruzi growth, primary screen, luminescence, NIH3T3 host cells. T. cruzi beta-gal in NIH3T3, 90 h. 1.4% of 300,000 active. inhibition, % (test concentration not listed);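 active = mean inhibition across valid replicates above about 55%, limit read from the data; inconclusive = mean below that limit but half or more replicates reach it; inactive = mean below it, under half of replicates reach it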;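 note: signal also drops with host cell toxicity which is not excluded here; 0% = plate median of DMSO wells and 100% = zero luminescence signal; higher percent means less beta-gal luminescence so fewer parasites; stock transfer was 50 nL into about 50 µL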
# RanGTP-Impb inh: inhibitors of RanGTP-importin-beta interaction, primary screen, biochemical, FRET, CFP-Ran, YFP-importin-beta, homogeneous | cell-free CFP-Ran/YFP-importin-beta FRET ratio | inhibition, % (concentration not given with the values) | 1.1% of 300,000 active | AID 2216, 2009;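 active = most replicates above 15%; inconclusive = exactly half above 15%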;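 note: 0% = DMSO wells and 100% = Ran loaded with GDP instead of GTP; wells of about 40 µL received 100 nL stock; the first replicate is given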
# Vif A3G: inhibitors of Vif binding to APOBEC3G peptide, primary screen, biochemical, TR-FRET, GST-Vif 1-94, biotin-A3G peptide, dose response retest (AID 1117319); Virion infectivity factor (Human immunodeficiency virus type 1 group M subtype B (isolate …; TR-FRET GST-Vif / biotin-A3G peptide binding; higher % means a stronger effect; test concentration not given here; strong numbers were not always called active; inhibition, %; hits with a dose series show IC50 in µM; 0.57% of 260,000 active;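 active = above the screen mean plus three standard deviations and confirmed in dose response; inconclusive = results disagree or hit not tested in dose response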;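 note: Vif residues 1-94 fused to GST binding biotinylated APOBEC3G peptide 110-148; 0% = full assay without inhibitor and 100% = GST in place of GST-Vif; retest series ran down from 100 µM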
# Beta cell apopt: inhibitors of cytokine-induced beta cell apoptosis, primary screen, luminescence; protection from apoptosis, % (test concentration not listed); 0.8% of 300,000 active; INS-1E cytokine-induced death, ATP luminescence, 48 h; percent of positive-control rescue, neutral wells zero; AID 435005, 2010;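 active = all replicates at 75% or more, or half of them and the mean; inconclusive = half reach 75% but not the mean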;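 note: 0% = cytokine-treated negative control wells and 100% = positive control rescue; higher means more ATP so stronger rescue from cytokine killing; wells of about 40 µL received 100 nL stock; the first replicate is given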
# Calb FLC: C. albicans growth inhibition with fluconazole, primary screen, CaCi-2 strain, Alamar Blue fluorescence | C. albicans CaCi-2 (fluconazole-resistant clinical isolate) + fluconazole, 48 h | growth inhibition, % (test concentration not listed) | 0.57% of 300,000 active;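 active = most replicates above 75%; inconclusive = exactly half above 75%; inactive = most below 75%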;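 note: all wells also contain fluconazole at 8 µg/ml as a sub-toxic cotreatment; 0% = median of DMSO wells and 100% = median of geldanamycin control wells; wells of about 8 µL received 7.5 nL stock; the first replicate is given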
# Ecoli rRNA inh OD600: further read-out of Ecoli rRNA inh, marked with its call; OD600 change, %; measured here: OD600 growth;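 optical density of the mix in the first replicate; 0 = DMSO median and -100 = no signal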
# Ecoli rRNA inh RFP: recorded beside Ecoli rRNA inh, whose call it bears; RFP signal change, %; measured here: RFP humanized mutant strains;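 first replicate; 0 = DMSO median and -100 = no signal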
# Starred values were filed as active, the others as inactive; u = inconclusive; x = not tested or not shown; & = joins results of further samples.
SMILES,Ecoli rRNA inh,Ecoli rRNA inh OD600,Ecoli rRNA inh RFP,A1 inh,AF4-AF9 inh,T cruzi repl,RanGTP-Impb inh,Vif A3G,Beta cell apopt,Calb FLC
O=C(c1ccc2c(c1)OCO2)C1CCCN(Cc2cn[nH]c2-c2cccc(F)c2)C1 (stereo unspecified),1,5,2.3,0.3,2.1,10,-1.3,-1%,0,-45
O=S(=O)(NCCN1CCOCC1)c1ccc(F)c(Cl)c1,10,4,-0.5,2.6,1.4,9,6.5,-1%,0,-2
CCOC(=O)c1cnc(SCC(=O)c2ccc(Cl)cc2)nc1N,x,x,x,-0.6,x,25,-4.1,18%,1,6
COc1cc(NC2c3ccccc3C(=O)N2Cc2ccc3c(c2)OCO3)cc(OC)c1 (stereo unspecified),-11,-13,1.8,0.5,-4.7,-3,1.7,x,1,0
Cc1ccc(C(=O)N2CCN(c3ccc(NC(=O)c4cccs4)cc3)CC2)cc1,6,2,-2.7,0.6,1.9,9,3.8,x,-5,9
Cc1ccc(NS(=O)(=O)c2cc(OCC(N)=O)c(C)cc2Cl)cc1,x,x,x,0.3,-0.1,-4,-1.0,u,8,0
CCOC(=O)c1nc(C)sc1-c1ccnn1S(=O)(=O)c1ccc(C)cc1,-22*,-9.5*,2.6*,0.0,0.2,-9,27,-4%,x,6
O=C(NCCc1ccc(Cl)cc1)C1CCN(S(=O)(=O)c2cccc3nonc23)CC1,x,x,x,0.5,x,13,3.2,0%,3,-3
CCc1ccc2[nH]c(=O)c(CN(Cc3ccco3)S(=O)(=O)c3ccc4c(c3)OCCO4)cc2c1,x,x,x,-0.1,x,14,-0.7,2%&-3%,2,1
Cc1cccc(N(CC(=O)NCc2ccc3c(c2)OCO3)C(=O)CCC(=O)Nc2ccccn2)c1C,x,x,x,x,x,17,-1.2,u,x,-1
COc1ccc(OC)c(CNC(=O)COc2cc(=O)n(C)c3ccccc23)c1,-2,3,-4.3,x,x,13,-1.3,1%,2,-2
O=C(Nc1ccc2ncccc2c1)Nc1ccc2ncccc2c1,-5,-10,-0.2,-0.9,-0.6,12,6.4,-12%,0,1
Cc1nn(-c2ccccc2)c(N2CCCC2)c1/C=N/O,0,3,-2.2,0.7,-32,-34,-0.6,5%,3,-2
CCOc1ccc(C(=O)NCC(=O)OCc2cc([N+](=O)[O-])cc3c2OCOC3)cc1OCC,12,15,-0.3,-1.2,-0.3,9,0.8,-1%,-5,5
CC(C)c1ccc(S(=O)(=O)N2CCN(C(=O)c3cc([N+](=O)[O-])ccc3N3CCOCC3)CC2)cc1,4,-4,-0.8,0.8,8.7,8,-3.1,-2%,3,-12

# Brought forward from above: two entries; new compounds follow.
SMILES,Ecoli rRNA inh,Ecoli rRNA inh OD600,Ecoli rRNA inh RFP,A1 inh,AF4-AF9 inh,T cruzi repl,RanGTP-Impb inh,Vif A3G,Beta cell apopt,Calb FLC
CCOc1ccc(C(=O)NCC(=O)OCc2cc([N+](=O)[O-])cc3c2OCOC3)cc1OCC,12,15,-0.3,-1.2,-0.3,9,0.8,-1%,-5,5
CC(C)c1ccc(S(=O)(=O)N2CCN(C(=O)c3cc([N+](=O)[O-])ccc3N3CCOCC3)CC2)cc1,4,-4,-0.8,0.8,8.7,8,-3.1,-2%,3,-12
Cc1ccc(C(=O)NC(=S)NNC(=O)c2ccccc2)cc1,-46,-75,-22,1.3,-1.9,0,2.7,14%,2,15
Cc1ccc(S(=O)(=O)N(C)C)cc1NC(=O)COC(=O)Cc1ccc(Br)cc1,-3,3,3.1,0.2,0.4,-13,5.0,-2%,-2,-14
O=C(NCCCCCNC(=O)c1ccco1)c1ccco1,x,x,x,1.3,x,-12,-0.9,4%,0,5
Cc1cc2c(cc1S(=O)(=O)N(C)Cc1ccccc1)n(C)c(=O)c(=O)n2C,-2,-3,-0.9,0.6,-0.3,20,1.6,-6%,5,-8
CCn1c(SCC(=O)NCc2ccco2)nnc1-c1ccncc1,x,x,x,0.6,x,7,6.7,20%,-6,-12
N#C/C(=C(/O)c1cccc(F)c1)c1nc2ccccc2s1,-23,-33,-7.3,-4.4,3.8,4,0.2,0%,17,-2
Cc1ccc(NC(=O)CNC(=O)c2ccccc2F)cc1Cl,x,x,x,-1.1,x,-3,1.2,5%,-10,-11
COc1ccc(-c2[nH]ncc2CN2CCC(C(=O)c3ccc(F)cc3)CC2)cc1,3,1,6.6,0.0,3.8,12,0.8,-10%,-6,29
S=c1nc(Cc2ccc(Cl)cc2)[nH]c2ccccc12,9,9,2.3,-0.6,0.2,23,2.9,-1%,-4,-9
CC1(C)Cc2cccc(OCC(=O)OCC(=O)c3ccccc3)c2O1,8,11,2.6,0.3,-0.8,x,x,-4%,-1,x
O=C(c1ccc(F)cc1)c1cnc(Nc2ccccc2)s1,9,9,-1.9,-0.7,-1.6,8,0.9,-8%,4,-4
O=C(NCCCN1CCCC1)c1ccc(CS(=O)(=O)c2ccc(Cl)cc2)o1,5,13,-1.3,0.7,-0.8,-15,2.4,x,4,2
OCCNCCOc1ccccc1F,x,x,x,0.3,x,-18,2.1,-1%,1,7
O=C(Oc1ccc2[nH]cc(CCN3C(=O)c4ccccc4C3=O)c2c1)c1ccco1,-15,-6,4.0,-0.1,-26,-13,-0.9,7%,1,17
CC(=O)NS(=O)(=O)c1ccc(NC(=O)CC(C)c2ccccc2)cc1 (stereo unspecified),12,11,0.9,1.7,-1.3,-17,7.9,-10%,x,-12
COc1ccc(NC(=O)CCc2ccccc2)cc1S(=O)(=O)N1CCOCC1,5,6,0.7,1.3,3.1,x,x,-10%,1,x
CC(C)CCNC(=O)C1CC(=O)N(C2CCCC2)C1 (stereo unspecified),x,x,x,0.6,x,-23,-0.9,3%,-7,-4
O=C1C2CCCN2C(c2ccccc2)N1c1nccs1 (stereo unspecified),x,x,x,-0.4,x,-19,4.9,>100µM*,-3,-6
CC(C)CC1Nc2ncnc(N3CCN(c4ccccn4)CC3)c2N(Cc2ccc(Br)cc2)C1=O (stereo unspecified),-4,1,3.8,1.9,3.7,22,0.8,x,x,21
CCOc1nc(NCCN2CCOCC2)nc(Nc2ccc(C)cc2)n1,x,x,x,-0.6,x,-6,-9.9,5%,-2,12
N#Cc1ccsc1NC(=O)CN1CCN(c2ccccc2O)CC1,x,x,x,1.1,x,-1,-0.6,8%,0,-5
Cc1ccc2c(c1)[C@H]1[C@H](CO2)[C@H](c2ccccc2)[C@]2(C)C(=O)Nc3cc(F)c(F)cc3C(=O)N12,-1,-9,1.9,-0.2,4.4,x,x,x,9,x
Cc1cc([N+](=O)[O-])nn1CC(=O)Nc1cnc2ccccc2c1,-5,-2,-5.3,-3.2,0.1,-9,7.1,21%,-9,-5
CCCCCn1nc(C(=O)OCc2nc(N)nc(Nc3ccccc3)n2)c2ccccc2c1=O,-10,3,1.2,0.4,-1.1,x,x,-8%,1,x
CCOc1cc(/C=N/NC(=O)C(=O)N/N=C/c2ccc(O)c(OCC)c2)ccc1O,-4,7,-3.7,1.2,0.1,5,4.0,x,-5,-5
O=C(CN1C(=O)NC2(CCCCCC2)C1=O)N1CCC(Cc2ccccc2)CC1,x,x,x,-0.5,x,14,1.1,-2%,3,-22
Cc1ccc(-c2csc(N3CCC(NS(=O)(=O)c4ccc5c(c4)OCCO5)CC3)n2)cc1,x,x,x,-0.8,x,20,2.0,-4%,97*,8
COc1ccc(S(=O)(=O)N(Cc2cccnc2)Cc2cc3ccccc3[nH]c2=O)cc1,-29*,-25*,-1.3*,1.3,-4.2,22,5.4,x,x,-6
O=c1n(Cc2ccccc2Cl)nc2n1-c1ccccc1SC2,x,x,x,-0.1,-0.2,3,3.7,5%,2,0
CC1CCN(c2nc(Cl)nc(Nc3ccc([N+](=O)[O-])cc3)n2)CC1,0,-14,-1.6,-0.1,7.4,38,0.9,11%,11,21
C[C@H](NC(=O)c1nc[nH]c1C(=O)NC1CCN(C(=O)OC(C)(C)C)CC1)C(=O)OCc1ccccc1,3,9,3.1,0.6,9.6,7,7.0,7%,1,5
O=C(Nc1ccc2nsnc2c1)NC1CCCCC1,x,x,x,-0.6,x,14,3.3,-12%,1,-16
O=C(COc1ccc([N+](=O)[O-])cc1)Nn1cnnc1,22,15,1.0,-0.1,0.8,-1,1.8,x,x,-8
COc1ccc(C)cc1N(CC(=O)NCCN1CCOCC1)S(=O)(=O)c1ccccc1,2,0,-2.8,0.4,0.2,5,-3.1,1%,x,-5
COc1ccc(OC)c(S(=O)(=O)NCCCN2CCOCC2)c1,2,16,1.0,-0.5,-7.9,x,x,x,-3,x
CC(C)(C)C(=O)Nc1ncccc1C(O)c1cccc(C(F)(F)F)c1 (stereo unspecified),9,10,1.2,-0.6,-2.2,-20,1.0,-4%,-10,u
COc1ccc(CNS(=O)(=O)c2cc3c4c(c2)CCN4C(=O)CC3)cc1,5,5,0.6,x,-1.6,-11,-3.0,4%,x,-6
COc1ccccc1C1=NC(c2ccc(C)cc2)N=C1C (stereo unspecified),x,x,x,0.6,-8.2,-11,3.1,-1%,-2,-14
COc1ccc(C(C)=O)cc1COC(=O)c1cccnc1SC,-5,-14,-4.5,0.1,0.6,-1,4.7,1%,3,-44
CCOC(=O)C1CCCN(C(=O)c2ccc3c(c2)NC(=O)C(N2CCOCC2)S3)C1 (stereo unspecified),x,x,x,0.3,x,-7,-2.9,0%,-1,6
O=C(c1ccc(Cl)cc1)N1C2C=CC(C2)C1(C(F)(F)F)C(F)(F)F (stereo unspecified),8,6,-0.7,u,2.2,8,3.1,16%,3,-1
C=CCOC(=O)C1=C(C)NC(=O)NC1c1ccc(OCC)cc1 (stereo unspecified),8,4,12,0.1,-3.0,1,-2.4,x,2,-2
COc1ccc(Cl)cc1C(=O)NNC(=S)NC(=O)/C=C/c1ccco1,-9,-1,2.9,-0.7,-0.6,-6,5.4,x,10,29
COc1ccccc1CNC(=O)COc1ccc(C)cc1,-16,-14,-1.9,0.0,7.4,-6,-3.4,x,-2,2
CCOc1ccc(C(=O)NCC(=O)NCCCn2nc(C)cc2C)cc1OCC,7,8,1.5,0.2,-1.1,-11,-2.9,x,-2,2
O=C(NCc1ccco1)/C(=C/c1ccco1)NC(=O)c1ccc(Br)o1,27,9,-0.7,0.5,-8.6,5,4.2,x,-2,4
CCOC(=O)CNC(=O)CSc1nc2cccnc2n1Cc1ccccc1,x,x,x,-0.3,x,-2,0.3,27%,2,-3

# From PubChem BioAssay

# The list is partial. The share of hits here may be higher or lower than overall.
